# High-throughput results (PubChem)
# YopH PTP inh = YopH tyrosine phosphatase inhibitors, primary screen, biochemical, fluorescence Ex485/Em525; inhibition, %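 (about 10 µM by stock and volumes)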; hit rate 0.16% among 140,000;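 active = inhibition of 50% or more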;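 also: controls were vehicle for no effect and minimum signal wells for full effect; inactives centre near -20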
# Mtb bLac sens = beta-lactam sensitization of Mtb H37Rv, H37Rv; hit rate 0.27% among 330,000; inhibition, % at 25 µM; AID 434955, 2010; M. tuberculosis H37Rv growth with meropenem, percent inhibition; hits of this screen are not shown here;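 active = about 74% or more and at least 40 points above the plate without the antibiotic, then above 30% in a dose series; inconclusive = first-round hits that could not be retested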;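 also: growth measured after seven days incubation then overnight dye step; 0% = bacteria only wells and 100% = bacteria with antibiotic; twin plates without the antibiotic show which effects depend on it; some results filed as inactive read as strong as hits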
# Arbovirus anti = antivirals against arbovirus infection, primary screen, cell-based, full library, 10K replicate subset; arbovirus infection cell-based antiviral screen; inhibition, % at 10 µM; hit rate 0.37% among 200,000; AID 1251, 2008;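 active = inhibition from about 30%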;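 also: bluetongue infection of BSR cells; cell survival read as ATP light after 72 h; 0% = infected wells without compound and 100% = uninfected wells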
# Mtb growth = M. tuberculosis H37Rv growth inhibitors, H37Rv strain (AID 1626); one-dose inhibition, % at 10 µM; IC50 in µM for titrated hits; hit rate 0.95% among 220,000; M. tuberculosis H37Rv growth inhibition; higher % means a stronger effect;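 active = confirmed in a dose series; inconclusive = inhibition above 80% but not taken into the dose series; inactive = below 80% or under 30% at every dose of the series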;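 also: bacteria incubated seven days before Alamar blue readout; 0% = bacteria only wells and 100% = bacteria with antibiotic wells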
# RecA intein inh = Mtb RecA intein splicing inhibitors, primary screen, biochemical, fluorescence, HTS | inhibition, %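 (about 9 µM by stock and volumes)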 | AID 2221, 2009 | hit rate 0.75% among 290,000 | Protein RecA (Mycobacterium tuberculosis (strain ATCC 25618 / H37Rv)), P9WHJ3 | cell-free RecA intein splicing; in the data active = inhibition above about 30%; inconclusive = no clear call, values can overlap the other calls;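 also: 0% = vehicle wells and 100% = reference inhibitor control wells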
# Target sequence (P9WHJ3 whole entry, looked up): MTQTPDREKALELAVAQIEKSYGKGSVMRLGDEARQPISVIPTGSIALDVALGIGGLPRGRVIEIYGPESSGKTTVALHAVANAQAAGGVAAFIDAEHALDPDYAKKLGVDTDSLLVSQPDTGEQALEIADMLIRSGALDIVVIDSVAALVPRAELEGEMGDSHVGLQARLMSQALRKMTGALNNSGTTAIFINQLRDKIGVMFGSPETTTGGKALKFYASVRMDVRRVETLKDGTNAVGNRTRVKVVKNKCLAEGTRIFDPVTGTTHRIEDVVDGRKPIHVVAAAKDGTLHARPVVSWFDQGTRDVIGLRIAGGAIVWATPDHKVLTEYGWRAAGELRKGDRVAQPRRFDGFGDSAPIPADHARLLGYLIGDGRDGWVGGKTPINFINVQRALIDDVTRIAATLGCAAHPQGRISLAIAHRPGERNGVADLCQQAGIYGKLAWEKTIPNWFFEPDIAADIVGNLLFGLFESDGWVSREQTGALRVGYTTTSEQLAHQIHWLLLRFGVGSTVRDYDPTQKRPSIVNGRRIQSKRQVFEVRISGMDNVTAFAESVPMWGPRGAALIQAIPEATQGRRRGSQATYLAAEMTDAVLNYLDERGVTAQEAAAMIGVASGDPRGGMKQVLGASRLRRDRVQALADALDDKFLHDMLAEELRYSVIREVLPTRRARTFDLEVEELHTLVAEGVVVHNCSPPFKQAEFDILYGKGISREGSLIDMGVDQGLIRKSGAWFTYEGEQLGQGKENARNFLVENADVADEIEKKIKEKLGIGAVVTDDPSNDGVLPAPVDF
# Arbovirus anti repeat = further read-out of Arbovirus anti, marked with its call; inhibition, %; measured here: 10K subset replicate screen; many hits read low in the repeat;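 first of two repeat runs on a subset; 0% = infected and 100% = uninfected wells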
# Active calls of the source: *; u = inconclusive; x = no result given. Some of the compounds tested, so the mix of outcomes need not match the whole.
SMILES,YopH PTP inh,Mtb bLac sens,Arbovirus anti,Mtb growth,RecA intein inh,others
CCOC(=O)Cn1c(=O)oc2cc(S(=O)(=O)NC3CCCCC3)ccc21,x,5.3,x,x,-0.1,
C=CCC1(N(C(C)=O)c2ccccc2C)CCCCC1,x,3.0,-12.4,-1.9%,-2.5,
CCCCCC(=O)N(O)C1CC(=O)N(c2ccccc2)C1=O (stereo not drawn),-37.5,60.7,9.3,-5.9%,-2.2,
OC(CNC1CCCCC1)CNC1CCCCC1,x,-1.6,39.2*,-0.8%,-1.8,
CC(c1nccs1)N(C)C(=O)CCc1nnc(Cc2c[nH]c3ccccc23)o1 (stereo not drawn),x,1.5,-0.5,1.8%,-1.0,
CCCC[C@@H]1CNCCN1CCc1cc(C(F)(F)F)cc(C(F)(F)F)c1,x,6.8,x,x,0.3,
O=C(N/N=C/c1cccnc1)C1CC1(c1ccccc1)c1ccccc1 (stereo not drawn),x,4.5,-1.2,8.2%,3.2,
COc1ccc(OCC(=O)Nc2ccc(Cl)cc2)cc1,x,93.2,-22.3,19.7%,0.7,
CCCNC(=O)CSc1nnc(-c2ccc(F)cc2)o1,x,93.1,-6.5,5.88µM*,1.2,
Cc1cc(Cl)c(S(=O)(=O)N2CCCCCC2)cc1OCC(N)=O,-17.4,-3.1,6.3,1.2%,x,
CCN(CC)C(=O)CSc1nnc(-c2ccccn2)n1Cc1ccccc1,x,-11.7,x,x,-1.0,
CCOC(=O)N1CCC(N2Cc3cccc(C(=O)O)c3C2=O)CC1,-41.7,4.2,0.9,0.0%,-1.2,
Cc1cc(C)cc(NC(=O)CSc2nnc(-c3ccc(S(=O)(=O)N4CCCC4)cc3)o2)c1,-34.7,-10.5,-1.9,1.5%,0.2,
O=C(NCC1CCCO1)C1CCCN(S(=O)(=O)c2ccc(Br)cc2)C1 (stereo not drawn),x,3.1,x,x,0.3,
NC(=O)c1cc[n+](Cc2ccc([N+](=O)[O-])cc2)cc1,x,0.2,x,x,-1.1,
C/C(=N\NC(=O)c1ccccn1)c1ccc(C(=O)O)s1,x,-3.5,-1.1,-7.1%,-0.1,
Cc1ccc2c(c1)C(c1ccc(F)cc1)N(C(=O)c1ccc(S(=O)(=O)N(C)C)cc1)CC(=O)N2 (stereo not drawn),x,25.7,x,x,1.2,
c1ccc2c(c1)ncn2CCOCCOCCn1cnc2ccccc21,-7.3,-13.0,-1.9,0.2%,-1.0,
CCc1ccc2[nH]c(C(=O)Nc3ccc(C)c(F)c3)cc2c1,x,3.0,x,x,1.6,
COCCNC(=S)NN(c1ccccc1)c1ccccc1,x,-10.0,-1.2,3.9%,-3.4,

# Among those listed so far, these contain four or more nitrogen atoms:
SMILES,YopH PTP inh,Mtb bLac sens,Arbovirus anti,Mtb growth,RecA intein inh,others
CC(c1nccs1)N(C)C(=O)CCc1nnc(Cc2c[nH]c3ccccc23)o1 (stereo not drawn),x,1.5,-0.5,1.8%,-1.0,
CCN(CC)C(=O)CSc1nnc(-c2ccccn2)n1Cc1ccccc1,x,-11.7,x,x,-1.0,
Cc1cc(C)cc(NC(=O)CSc2nnc(-c3ccc(S(=O)(=O)N4CCCC4)cc3)o2)c1,-34.7,-10.5,-1.9,1.5%,0.2,
c1ccc2c(c1)ncn2CCOCCOCCn1cnc2ccccc21,-7.3,-13.0,-1.9,0.2%,-1.0,

# Continuation:
SMILES,YopH PTP inh,Mtb bLac sens,Arbovirus anti,Mtb growth,RecA intein inh,others
CC(C)C1Nc2ccc(C(=O)NCCCN3CCOCC3)cc2NC1=O (stereo not drawn),x,0.7,x,x,-3.2,
O=C(Nc1cc(F)ccc1F)c1cccc(-n2cnnn2)c1,x,1.5,x,x,-0.7,
O=C(O)C1C2CCC(O2)C1C(=O)Nc1ccc(F)cc1 (stereo not drawn),x,-7.3,12.7,-3.8%,-2.0,
CCc1nnc(NC(=O)c2ccc(Br)o2)s1,x,-3.8,x,x,-0.6,
CC(C)N1C(=O)CCC1C(=O)NCCc1ccccc1 (stereo not drawn),-50.4,2.3,-3.1,-6.6%,-0.1,
Cn1c(=O)n(C)c2cc(C(N)=O)ccc21,-4.8,0.2,3.0,0.8%,0.7,
O=S(=O)(Nc1ccc(O)c(Sc2nc3ccccc3s2)c1)c1ccc(F)cc1,-29.1,-6.0,15.7,-6.9%,8.1,
Cc1ccc(CNn2cnnc2SCC(=O)NC(C)(C)C)cc1,-0.8,-7.9,4.2,-3.4%,-1.4,
CC(=O)Oc1ccc2c(C)cc(=O)oc2c1C(=O)c1ccccc1,-40.5,5.3,-9.0,0.2%,-3.4,
NC(=S)n1[nH]c(-c2ccc([N+](=O)[O-])cc2)c(N=Nc2ccc(Cl)cc2)c1=O,x,x,-6.1,u,x,
O=C(O/N=C1\CCS(=O)(=O)c2sccc21)c1ccc(F)cc1,x,-1.0,-2.9,-4.6%,-1.8,
CCOc1ccc(NC(=O)CCC(=O)NNC(=O)COc2ccccc2C)cc1,x,1.2,0.0,u,0.1,
COc1ccc(O)c(C(C)(C)C)c1,x,-2.9,0.6,-1.0%,-4.5,
COc1cc(NC(=O)CCN2CCN(c3ccccc3F)CC2)cc(OC)c1,-37.8,-1.4,8.3,-9.8%,3.7,
O=C(/C=C/c1ccc(Cl)cc1)NCCc1ccccc1,-25.3,18.4,9.0,8.7%,0.6,
CNC(=O)CN(c1cc(OCCOC)c(Cl)cc1Cl)S(=O)(=O)c1ccc(OC)cc1,x,-6.9,-8.7,-6.7%,1.0,
CCCOC(=O)c1c(NC(=O)CCC(=O)O)sc2c1CCCCC2,x,1.9,4.7,-0.5%,2.8,
CCCC1NC(C(=O)O)Cc2c1[nH]c1ccccc21 (stereo not drawn),x,1.9,x,x,-11.6,
Cn1c(=O)cc(OCC(=O)NCCc2ccc(Cl)cc2)c2ccccc21,x,0.1,3.4,5.2%,-3.4,
CSc1nc2ccc(NC(=O)C3CCCO3)cc2s1 (stereo not drawn),-42.4,91.6,-10.2,x,-0.8,
Cc1c(C)c(C)c(C(=O)c2ccc(NC(=O)c3ccccc3C(=O)O)cc2)c(C)c1C,x,3.5,x,x,6.4,
Cc1c(C(=O)N2CCN(c3ccccc3)CC2)sc2ncnc(N3CCN(c4ccccn4)CC3)c12,x,75.9,x,x,-0.6,
O=C(COC(=O)c1cccc(C(=O)OCC(=O)NCc2ccc(F)cc2)n1)NCc1ccc(F)cc1,-8.6,1.6,0.5,6.5%,-1.7,
Nc1ncncc1-c1ccc([N+](=O)[O-])cc1,3.8,1.1,7.0,-5.3%,-3.9,
Cc1ccc(Cn2ccsc2=NC(=O)COC(=O)c2ccc(NC(=O)CC#N)cc2)cc1,x,1.8,x,x,3.6,
COC(=O)C(C)NC(=O)COc1ccc2ccccc2c1 (stereo not drawn),x,73.5,-3.2,9.9%,8.4,
CC1(C)N=C(c2ccccc2)C(=O)N1,-4.5,-5.6,11.6,2.1%,x,
Nc1nonc1-n1nnc(C(=O)N/N=C/c2cccc(O)c2)c1CN1CCCC1,x,-2.5,x,x,-0.3,
CC(C)[C@H](NC(=O)c1ccccc1Cl)C(=O)NC1CCCCCC1,x,-10.2,4.5,2.6%,1.6,
COc1ccc(OC)c(NC(=S)NCc2ccccc2OC)c1,x,-0.7,3.6,7.0%,2.6,
COc1cc(CN2CCNC(=O)C2CC(=O)O)cc(OC)c1 (stereo not drawn),x,3.1,2.1,4.4%,1.6,
Cc1ccc(NC(=S)/C(=C(\[O-])c2ccc(Cl)s2)[n+]2cccc(CO)c2)cc1C,x,-3.9,13.4,-2.7%,1.7,
Cc1ccc(NC(=O)c2ccc(=O)[nH]n2)cc1C,x,2.0,x,x,0.6,
Cn1ccnc1SCC(=O)n1c2c(c3ccccc31)CCCC2,-4.5,-1.9,7.2,1.2%,-2.4,
COc1cc(C(=O)OCC(=O)NCc2ccccc2)cc(NC(=O)c2ccco2)c1OC,-13.6,-2.3,9.2,-1.1%,0.9,
O=C(NCc1cccc(Cl)c1)C1CCCN(c2ncnc3c2nc2n3CCCCC2)C1 (stereo not drawn),x,10.2,x,x,0.9,
NC(=O)CSc1ncnc2c1oc1ccccc12,-31.6,-0.6,-1.5,7.2%,-0.2,Arbovirus anti repeat=2.7
O=C(NNC1CC(=O)N(c2cccc(Cl)c2)C1=O)c1cccnc1 (stereo not drawn),-26.3,3.6,8.6,-5.6%,3.1,
Cc1cc(C)c2nc3nc(C)cc(C)c3c(N)c2c1,-23.8,6.1,-38.1,7.6%,-391.2,
COc1cc2c(cc1OC)C(CC(=O)O)N(C(=O)CC1CCCC1)CC2 (stereo not drawn),x,-1.8,x,x,-3.1,
Clc1ccc(Cc2nc(-c3ccncc3)no2)cc1,x,6.6,-29.4,-1.7%,1.5,
CCOC(=O)c1c(-c2ccccc2)oc2ccc(O)c(CN(C)C)c12,0.4,0.3,-14.3,-7.7%,0.6,
O=S(=O)([N-]c1nc2ccccc2nc1-[n+]1ccccc1)c1ccc(F)cc1,x,-7.2,1.9,-2.6%,-2.1,
Cc1ccnc(Sc2ncccc2[N+](=O)[O-])n1,-2.4,-1.9,1.2,-65.3%,-4.8,
CC(=O)c1cn(CC(=O)NCc2ccco2)c2ccccc12,21.6,-11.3,3.2,-11.6%,5.0,
O=C(O)c1ccc(-n2nnnc2SCc2ccccc2)cc1,-28.6,2.3,-3.4,-4.6%,0.6,
CCOC(=O)c1c(S(=O)(=O)NCCc2cccs2)c(C)n(C)c1C,x,-4.1,x,x,0.5,
CCOc1ccc(C2c3[nH]c4ccccc4c3CCN2Cc2cn(CC)nc2C)cc1 (stereo not drawn),x,-3.3,-2.5,16.8%,-8.2,
CC1=C(/C=C/C(C)=C/C=C/C(C)=C/CO)C(C)(C)CCC1,x,-6.1,x,5.7%,6.7,
CCSc1nnc(NC(=O)CSc2nccn2-c2cccc(C)c2)s1,-21.7,x,6.0,59.6%,-1.8,

# The last two compounds of the section before lead into the next:
SMILES,YopH PTP inh,Mtb bLac sens,Arbovirus anti,Mtb growth,RecA intein inh,others
CC1=C(/C=C/C(C)=C/C=C/C(C)=C/CO)C(C)(C)CCC1,x,-6.1,x,5.7%,6.7,
CCSc1nnc(NC(=O)CSc2nccn2-c2cccc(C)c2)s1,-21.7,x,6.0,59.6%,-1.8,
NC(=O)c1cnn2c(C(F)(F)F)cc(-c3ccccc3)nc12,-24.8,-11.6,2.0,-2.4%,-3.3,
CCC1CCCCN1CCCNC(=O)C1CCN(S(=O)(=O)N2CCCCC2)CC1 (stereo not drawn),-17.0,8.3,-12.8,10.4%,-0.2,
Cc1cc2ncn(-c3ncnc4sc5c(c34)CCC(C)C5)c2cc1C (stereo not drawn),-44.8,1.1,10.6,x,-0.4,
CC1CC(=O)Nc2ccc([N+](=O)[O-])cc2N1C (stereo not drawn),-16.9,0.8,-3.8,-5.0%,1.3,
COc1ccc(C2C(C(=O)N3CC(C)CC(C)C3)c3ccccc3C(=O)N2C)cc1 (stereo not drawn),-47.1,-11.4,-4.5,-7.7%,-0.7,Arbovirus anti repeat=-2.2
COc1ccc(N2C(=O)C3C4c5ccccc5C(C=Nc5ccc(C)cc5C)(c5ccccc54)C3C2=O)cc1 (stereo not drawn),-42.7,3.2,x,-0.3%,9.0,
CSc1nsc(SC)c1NC(=O)N1CCCC1,-16.6,-1.9,-8.3,-0.9%,2.1,
Cc1c(C(=O)OCC(=O)Nc2cccc(S(N)(=O)=O)c2)oc2c1ccc1ccccc12,x,-0.6,-2.3,13.3%,3.3,
O=C(CSc1nncs1)Nc1nccs1,x,-9.2,x,x,-1.2,
Cc1cc(NC(=O)CSCC(=O)N(c2cccc(Cl)c2)C(C(=O)NC2CCCCC2)c2ccc(O)c(O)c2)no1 (stereo not drawn),-38.6,6.2,-11.1,-2.4%,14.3,
CCOC(=O)CCc1cnccc1-c1cccc(OC)c1O,x,-1.3,x,-5.8%,-3.5,
O=C(O)c1ccc(NC2CC(=O)N(Cc3ccccc3)C2=O)cc1 (stereo not drawn),x,-6.2,-0.9,1.1%,1.3,
O=C(NCCCNC(=O)c1cnccn1)c1ccc(Br)cc1,x,5.4,x,x,3.4,
CCC(C)[C@H](NC(=O)Nc1ccccc1F)C(=O)O (stereo partly drawn),x,-4.9,x,2.5%,-2.9,
CCC(=O)N1CCN(c2nc3ccc(Br)cc3s2)CC1,x,0.5,x,x,2.2,
O=c1cc(N2CCN(c3ccccc3)CC2)[nH]c(=O)n1-c1ccccc1,x,1.1,14.9,-15.0%,6.0,
